High-throughput results deposited in PubChem by Fisher Drug Discovery Resource Center.
NPYLR7 agonist – mosquito NPYLR7 agonism; HEK293T NPYLR7/Galpha15, GCaMP6s calcium fluorescence; hit rate 0.15% among 270,000; activation, % at 10 µM; AID 1259423; in the data active means activation above about 40%;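 further: 0% = vehicle and 100% = reference agonist at the receptor; some compounds past the cut are filed as inactive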
NPYLR7 agonist max-min – further read-out of NPYLR7 agonist, marked with its call; activation, %; measured here: Max-Min RFU normalised activation; some inactives read as strong as hits;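 span of the calcium signal over five minutes; 0% = vehicle and 100% = native peptide agonist; compound fluorescence can raise it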
An asterisk follows results filed as active; & = joins results of further samples.

Below each SMILES: NPYLR7 agonist, NPYLR7 agonist max-min
COc1ccc(Cl)cc1C(CC(C)C)NC(=O)c1n[nH]c(=O)[nH]1 (configuration not stated)
→ 0, 2
CCOC(=O)c1c(NC(C)=O)c(-c2ccc(OC)cc2)cn1Cc1ccccc1
→ 4, -1
CN(Cc1csc(-c2ccccc2)n1)Cc1ncccc1C(=O)O
→ 23, 13
Cc1nc(NS(=O)(=O)c2ccc(F)c(F)c2)n(-c2ccc(C#N)cc2)n1
→ 8, 8
Nc1nnc(SCC(=O)Nc2nnc(-c3ccccc3Cl)s2)s1
→ 3, 5
COC(=O)CCc1sc(NC(=O)CSC(=S)N2CCOCC2)nc1-c1ccc(OC)cc1
→ 0, -2
C#CCSc1nnc(-c2ccc(OC)cc2)n1-c1ccc(C)cc1
→ -11, -1
COc1ccc(-c2csc(=Nc3ccc(F)cc3)n2NC(=O)CNc2ncc(C(F)(F)F)cc2Cl)cc1
→ -6, -12
CCN(C(=O)c1cc(Cl)nc(NC)c1)c1nc(C)cs1
→ -2, 0
O=C(O)CNc1cccc(C(=O)NCCN2CCCCC2)c1
→ 1, 14
CCCc1cc(=O)[nH]c(Sc2c(-c3ccccc3)c3cc([N+](=O)[O-])ccc3[nH]c2=O)n1
→ -15, -22
Cc1ccc2c(=O)cc(C(=O)NCc3cccnc3-n3ccnc3)oc2c1
→ 4, 3
Cc1ccccc1CSc1ncc(CO)n1CC(N)=O
→ 2, 1
COC(=O)C1(C(F)(F)F)N=C(C2CCCCC2)OC(N(C)C)=N1 (configuration not stated)
→ -5, -7
CCOc1cccc(-c2cc(C(=O)N3CCN(c4ccc(F)cc4)CC3)c3ccccc3n2)c1
→ -8, -8
COc1cc(C(=O)Nc2ncccc2C)cc(Cl)c1OCC(C)C
→ 4, 6
CCC(=O)N(c1nnc(SCC(=O)Nc2sc3c(c2C#N)CCC3)s1)C1CC1
→ 4, 7
Cc1cc(C(=O)N2CCN(S(=O)(=O)c3ccc(Br)cc3)CC2)c(C)s1
→ 4, 1
COCC(=O)N1CCCN(Cc2ccc(CO)o2)CC1
→ 4, 1
CCCCCOc1ccc(C(=O)N2CCN(c3cccc4[nH]ccc34)CC2)cc1OCCCCC
→ -6, -12

The listing continues.
Below each SMILES: NPYLR7 agonist, NPYLR7 agonist max-min
O=C1NC2(CCN(Cc3ccncc3)CC2)Nc2ccc(Cl)cc21
→ -1, 5
CCOc1ccc(NC(=O)CCOc2ccc(C)cc2)cc1S(N)(=O)=O
→ 0, -1
CCN(CCN(C)C)C(=O)c1ccc2nc(C)c(N(C)C(=O)CCc3ccccc3)n2c1
→ 20, 16
CCn1c(=O)c2c(nc3n2CC(C)=NN3CCc2ccccc2)n(C)c1=O
→ -5, -5
Cc1ccc(C(=O)Nc2ccc(N3CCN(S(=O)(=O)c4cccs4)CC3)nc2)cc1
→ 9, 9
O=C1CCC(C(=O)NCc2cccnc2N2CCOCC2)=NN1
→ 2, -3
O=C(O)CCCCCNc1nnc(Cl)c2ccccc12
→ -4, -5
Cc1ccn2c(NC(C)(C)CC(C)(C)C)c(-c3ccccc3OS(=O)(=O)c3ccc(F)cc3)nc2c1
→ 16, 12
CCn1ccnc1S(=O)(=O)Cc1ccc(Cl)c(Cl)c1
→ 2, 1
CN(Cc1cc(-c2ccccc2)no1)Cc1cnn(C)c1C1CC1
→ 8, 6
CCn1nc(C)cc1C(=O)OCc1nc(C)c(C)s1
→ 9, 8
O=C(N[C@@H]1CCCCC1NC(=O)C1CCN(C(=O)C2CCCCC2)CC1)c1ccc(F)cc1 (some centres not stated)
→ 4, 14
O=C(CSc1nnnn1-c1ccccc1)Nc1ccc(Br)cc1
→ -10, -10
CCN(CC)S(=O)(=O)c1ccc(NC(=O)CN2C(=O)NC(C)(c3ccc(C#N)cc3)C2=O)cc1 (configuration not stated)
→ -4, -4
CCc1ccc(-c2nc(CN(CCO)C(C)C)cs2)cc1
→ 3, 1
CCN(CC)c1nc(-c2ccc(Oc3ccccc3)cc2)nc2ccccc12
→ 0, 1
CNS(=O)(=O)c1csc(C(=O)OCc2sc(C)nc2C)c1
→ 1, 1
N#CC1C(=N)SC(=N)C(C#N)C1c1ccc([N+](=O)[O-])cc1 (configuration not stated)
→ -3, -3
CCc1nc2ccc(C(=O)NC3CCN(Cc4ccccc4)CC3)cn2c1N(C)C(=O)c1cccc(OC)c1
→ -1, 20
Cc1cc2ncc(C(=O)NCCCOC(C)C)c(C)n2n1
→ 1, -3

Next compounds.
Below each SMILES: NPYLR7 agonist, NPYLR7 agonist max-min
Cc1ccc(NC(=O)CSc2nc3c(c(=O)n2Cc2ccccc2)SCC3)c(C)c1
→ 3, -6
CC(C)c1nc2n(n1)CCCC2NC(=O)COc1ccc(CC#N)cc1 (configuration not stated)
→ 0, -1
O=S(=O)(Nc1ccc(Nc2cc(-n3ccnc3)ncn2)cc1)c1ccccc1Cl
→ -17, -22
CC(C)CC(=O)NNC(=O)C(C)N1CCCCC1C1OCCO1 (configuration not stated)
→ 0, -2
CC(CNC(=O)OC(C)(C)C)N(C)C(=O)c1scnc1Cl (configuration not stated)
→ 0, 17
Cc1ccc2c(c1)CCN1C(=O)CN(C(=O)C(=O)c3c[nH]c4ccccc34)CC21 (configuration not stated)
→ 39, 26
Cc1nc2onc(OCC(=O)OCc3ccccc3)c2c(C)c1C
→ 2, 0
CCCCc1nc(N2CCN(C(=O)c3ccccc3Cl)CC2)c2c(C)nn(-c3ccc(F)cc3)c2n1
→ -10, 4
COc1cccc(CNC(=O)N2CCN3CCNC(=O)C3C2)c1 (configuration not stated)
→ 4, 0
Cc1cc(C)cc(-n2c(SCC(=O)Nc3ccccc3)nc3c(c2=O)SCC3)c1
→ -1, -5
CCC(=O)Nc1ccc(-c2ccc(OC)nc2)c(C)n1
→ 9, 7
O=C(c1ccccc1F)N(Cc1nccn1Cc1ccc(F)cc1)C1CC1
→ 7, 8
CC(=O)NC1=NN(C(C)=O)C2(S1)C(=O)N(CCOc1ccc(C)cc1)c1c(C)cccc12 (configuration not stated)
→ 1, -1
CSC(C)(C)CNC(=O)N(C)CC1CCCO1 (configuration not stated)
→ 3, 1
COc1ccc(OC)c(C(C)NC(=O)CSc2nc3ccccc3o2)c1 (configuration not stated)
→ -14, -13
CC(=O)CCCCCC(=O)NCC1COc2ccccc2O1 (configuration not stated)
→ -7, -14
Cc1nc2n(n1)C(=O)C(C(c1ccccc1Cl)N1CCN(c3ccccc3)CC1)S2 (configuration not stated)
→ 6, 5
O=C1NC2(CCN(C(=O)Cc3cccs3)CC2)Nc2ccccc21
→ 0, 8
COc1cc(OC)cc(C(=O)Nc2cccc(-c3ccc(N4CCCC4)nn3)c2)c1
→ -1, -3
CCc1cnc(C)nc1N1CCC(O)(Cn2ccnc2)CC1
→ 15, 14

For reference, part of the list above:
Below each SMILES: NPYLR7 agonist, NPYLR7 agonist max-min
COc1ccc(Cl)cc1C(CC(C)C)NC(=O)c1n[nH]c(=O)[nH]1 (configuration not stated)
→ 0, 2
CCOC(=O)c1c(NC(C)=O)c(-c2ccc(OC)cc2)cn1Cc1ccccc1
→ 4, -1
CN(Cc1csc(-c2ccccc2)n1)Cc1ncccc1C(=O)O
→ 23, 13
Cc1nc(NS(=O)(=O)c2ccc(F)c(F)c2)n(-c2ccc(C#N)cc2)n1
→ 8, 8

Next part
Below each SMILES: NPYLR7 agonist, NPYLR7 agonist max-min
COc1cc2ccccc2cc1C(=O)NC(=S)Nc1ccccc1O
→ -12, -16
CN(C)c1ccc(NC(=O)C(C)(C)Oc2ccc(Cl)cc2)cn1
→ 9, 9
Cc1nccc(CNC(=O)NCCSCc2cccs2)n1
→ 2, 2
CSc1ccc(C(=O)CCC(=O)N2CCN(S(=O)(=O)c3cc(C(N)=O)n(C)c3)CC2)cc1
→ 1, 21
O=C(CC12CC3CC(C1)CC(CC(=O)Nc1ccccc1[N+](=O)[O-])(C3)C2)Nc1ccccc1[N+](=O)[O-]
→ -8, -11
c1ccc(Cc2nc(CCOc3ccccc3)n[nH]2)cc1
→ -5, -9
Cn1c(-c2ccc(F)cc2)n[nH]c1=S
→ -9, -13
O=c1c2ccccc2nc(-c2cc(C(F)(F)F)ccc2F)n1Cc1cccc(Cl)c1
→ 7, 1
Cc1nc2sc3c(c2c2nncn12)CCCC3
→ 1&2, 1&-1
CC(=O)/C(=C\c1ccccc1)CC(=O)O
→ -6, -12
CCCCS(=O)(=O)CC(COC(=O)c1ccc(C)cc1)S(=O)(=O)CCCC (configuration not stated)
→ 2, 3
C#CCSc1nc2c(cnn2CCO)c(=O)[nH]1
→ 3, 1
O=C(CCNC(=O)c1ccc(F)cc1)NC1(Cc2ccccc2)CC1
→ 1, 0
CN[C@H](C(=O)N[C@H]1C[C@@](O)(C(=O)N[C@H](CC(C)C)C(N)=O)C[C@@H](O)[C@@H]1O)C(C)C
→ -10, -14
CN1CCN(c2ncccc2CNC(=O)c2ccc(C3CCCO3)s2)CC1 (configuration not stated)
→ -2, -4
Cc1nc2ccc(C(=O)NCCN3CCNC3=O)cn2c1N(C)C(=O)CCc1ccccc1
→ 9, 8
CC(Sc1nnc(Nc2ccccc2)s1)C(=O)NCc1ccco1 (configuration not stated)
→ 7, 2
COc1cccc(C2SCCN2C(=O)Nc2cccc3ccccc23)c1OC (configuration not stated)
→ -11, -11
Cc1sc2ncnc(SCc3ccccc3)c2c1C
→ -4, -9
Cc1n[nH]c(C)c1Sc1ccccc1NC(=O)CCCn1cncn1
→ -2, -6

(further entries)
Below each SMILES: NPYLR7 agonist, NPYLR7 agonist max-min
O=C(Nc1cccc2cccnc12)N1CCOCC1CC(O)c1cccs1 (configuration not stated)
→ 2, 0
Cc1ccccc1OCc1nn2c(C(F)(F)F)nnc2s1
→ 2, 1
O=C(COc1ccccc1F)Nc1ccc2c(c1)OC(F)(F)O2
→ 1, 1
NCCCCC(N)C(=O)NC(Cc1ccc(O)cc1)C(=O)NC(CCCCN)C(=O)O (configuration not stated)
→ -9, -15
COc1ccccc1NC(=O)N1CCc2cc(OC)c(OC)cc2C1CNC(=S)Nc1cccc(C)c1 (configuration not stated)
→ 4, 15
Cc1ccc2nc(CNc3nncc(-c4ccc5c(c4)OCO5)n3)cn2c1
→ 6, 2
CC(C)c1cc(C(=O)NCc2ccc(OC3CCCC3)nc2)n[nH]1
→ 0, -3
CCOC(=O)NN=C(C1CC1)C1CC1
→ 3, 2
O=C(Nc1ccccc1[N+](=O)[O-])c1cc(-c2ccccc2)nc2ccccc12
→ -4, -8
Cc1ccc(C(CC(=O)N2CCNCC2)c2ccccc2)c(O)c1C (configuration not stated)
→ 6, 5
O=C(NCCC1CCCCC1)c1ncncc1Cl
→ -6&22, -7&17
COCc1nc2cc(NCc3cc(C#N)cs3)ccc2o1
→ 6, 3
CCCN(Cc1ccc(C(O)(c2ccccc2)c2ccccc2)o1)Cc1ccccc1OC
→ -6, 0
O=C(c1ccc(Cl)cc1Cl)N1CCCC(OCc2cccc(C(F)(F)F)c2)C1 (configuration not stated)
→ -2, 2
Cc1noc(C)c1CN(C)Cc1ccc(S(C)(=O)=O)cc1
→ 9, 6
COc1cccc(-c2cc(C(=O)N3CCCCC3)n3nc(C(C)(C)C)cc3n2)c1
→ 8&3, 12&18
Cc1ccc(S(=O)(=O)N(C)C2(C)CCS(=O)(=O)C2)cc1 (configuration not stated)
→ -2, -3
C[C@@H]1CN(CC2CCCCO2)CC(C(N)=O)O1 (some centres not stated)
→ -1, -9
CC1(C(=O)NS(=O)(=O)Cc2ccccc2)CCN1C(=O)C1CCCCC1 (configuration not stated)
→ 5, 2
C=CCN1CC(c2nc(CC(C)C)nn2-c2ccc(OC)cc2)CCC1=O (configuration not stated)
→ 21, 8

(list continues)
Below each SMILES: NPYLR7 agonist, NPYLR7 agonist max-min
COc1ccccc1C1CC(c2cccs2)=NN1c1nc(-c2ccccc2)c2cc(Cl)ccc2n1 (configuration not stated)
→ -6, -7
CCCn1c(C)cc(CNCCSCc2cccs2)c1C
→ -5, -5
CCN(CC(=O)Nc1ccc(OC)cc1)c1ncnc2c1cnn2C
→ -5, -6
CC1CCCN1C(=O)c1ccc(-c2ccc(Oc3ccccc3)cc2)s1 (configuration not stated)
→ 5, 3
O=C1NCC(=O)N2CCN(C(=O)CCc3nc4ccccc4s3)CC12 (configuration not stated)
→ -1, -2
CN(Cc1ccc(S(C)(=O)=O)cc1)Cc1cccc2cnccc12
→ 6, 5
O=C(c1ccc2cc[nH]c2c1)N1CCOC(COc2ccc(F)cc2)C1 (configuration not stated)
→ 27, 35
Cc1cccc(CSc2nc(N)c(NC(=O)c3ccco3)c(=O)[nH]2)c1
→ 3, 3
COC(C)c1noc(CN(C)C(=O)NCc2cc3ccccc3o2)n1 (configuration not stated)
→ -2, 30
O=C(NCc1ccncc1)c1c(O)c2ccccc2[nH]c1=O
→ 5, 3
COc1ccc(-c2ccc(S(N)(=O)=O)cc2F)c2ccc(C)nc12
→ -1, -2
CC(=O)N1CCN2C(=O)N(C(C)C)C(=O)[C@H]2C1
→ -10, -17
Cc1nc2ccc(C(=O)N(Cc3c(C)nn(C)c3C)C(C)C)cc2[nH]1
→ 0, -3
CCOC(=O)C1(Cc2ccccc2)CCCN(Cc2ccc(C#CCCO)cc2)C1 (configuration not stated)
→ 12, 15
CC(=O)OC(C(=O)N1CCCN(Cc2cc(=O)c(OCc3ccc(C(C)(C)C)cc3)co2)CC1)c1ccccc1 (configuration not stated)
→ 16, 4
O=C(c1cnc2c(O)cccn2c1=O)N1CCOC(C(F)(F)F)C1 (configuration not stated)
→ -6, -11
COC(=O)c1ccc(N2C(=O)CSC2c2cccnc2)cc1 (configuration not stated)
→ -10, -14
O=C(CSc1nnnn1C1CC1)N(C1=CCCCC1)C1CC1
→ 4, 3
O=c1c2ccccc2nc2n1N=C(c1ccc(Br)cc1)CS2
→ 11, 10
Fc1ccccc1Nc1n[nH]c(=S)s1
→ -2, -3
C=CCNC(=O)CSc1nnc(Nc2ccccc2Cl)s1
→ 9, 5
O=C1OC(/C=C/c2cccc(Cl)c2Cl)=NC/1=C/c1ccccc1[N+](=O)[O-]
→ -3, -6
CC(Cc1ccc2c(c1)OCO2)CN1CCC(N2CCC(C(=O)NC3CC3)CC2)CC1 (configuration not stated)
→ -4, -7

These rows are one share of the data; the hit share may differ from the screen's.
